Compound activity as filed in PubChem BioAssay.
HPGD inh: qHTS Assay for Inhibitors of HPGD (15-Hydroxyprostaglandin Dehydrogenase); 4.3% of 150,000 active; Potency, µM, without a hit: at the highest dose activity change, negative = inhibition, most hits filed as inhibitors; 15-hydroxyprostaglandin dehydrogenase [NAD(+)] (Homo sapiens), P15428; purified HPGD, NADH fluorescence kinetic, PGE2 substrate; active = well fitted inhibition curve with a large enough effect (not every such curve was filed as active); inconclusive = small, poorly fitted or top-dose-only effect, or another doubt; inactive = no such curve, though single readings can be large or run the other way;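 note: top concentration of the series not given in the record; plate controls included wells without enzyme; inactives centre near -10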
Target sequence (P15428 whole entry, looked up): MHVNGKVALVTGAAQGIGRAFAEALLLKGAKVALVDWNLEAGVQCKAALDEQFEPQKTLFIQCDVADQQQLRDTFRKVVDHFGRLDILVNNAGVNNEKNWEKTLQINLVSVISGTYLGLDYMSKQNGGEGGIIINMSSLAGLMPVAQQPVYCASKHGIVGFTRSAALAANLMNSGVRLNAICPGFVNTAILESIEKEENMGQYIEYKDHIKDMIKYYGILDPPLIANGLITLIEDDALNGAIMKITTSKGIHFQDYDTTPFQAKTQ
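20 nM HPGD preincubated 15 min at room temperature with compound in 50 mM Tris-HCl pH 8, 0.01% Tween 20. Started with 1 mM NAD+ and 30 uM prostaglandin E2; NADH fluorescence (360/450 nm) read 5 times over 30-s intervals, last minus first.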
Numbers without * were called inactive; ? = inconclusive; & = joins results of further samples. % is set by controls: 0 for no effect and ±100 for the full control effect; potency is the fitted concentration of half-maximal effect. This is a subset; rates above refer to the full screens.

No.	structure	HPGD inh
1	CC(C(=O)O)C1SC(=O)NC1=O (stereo not given)	-10.5%
2	O=C1c2ccccc2C(O)N1c1ccc(Cl)cc1 (stereo not given)	-9.9%
3	COc1ccc(/C=N/NC(=S)Nc2ccccc2[N+](=O)[O-])cc1O	-10.4%
4	COc1cc(NS(=O)(=O)c2ccc(N/C=C(\C#N)c3nc4ccccc4o3)cc2)nc(OC)n1	?
5	Cc1cc(C(=O)CSc2nnnn2C)c(C)n1CCc1ccc(Cl)cc1	-1.3%
6	CN(C(=O)c1ccccc1)c1nc2ccccc2s1	-18.2%
7	Nc1nonc1-c1nc2ccccc2n1CC(=O)NC1CCCC1	-4.0%
8	Cc1n[nH]c(C)c1S(=O)(=O)N1CCCC(C(=O)NCc2ccccc2Cl)C1 (stereo not given)	-10.3%
9	CCOc1ccc(C(=O)Nc2ccc(NC(=S)NC(=O)CC)cc2)cc1Cl	-4.1%
10	CCOC(=O)c1sc(NC(=S)NC(=O)c2ccccc2)c(C(=O)OCC)c1C	-11.1%
11	O=C(Nc1ccccc1)N1CCN(Cc2ccccc2)CC1	2.8%
12	Cc1ccc(C2NS(=O)(=O)N=C2N)cc1 (stereo not given)	-10.4%
13	O=C1N[C@@H](Cc2ccccc2)C(=O)N2CCCC12 (stereo not given in full)	-1.3%
14	CC(=O)C1=C(O)C=C2Oc3c(C(C)=O)c(O)c(C)c(O)c3C2(C)C1=O (stereo not given)	-4.7%
15	COc1ccc(C(C#N)N2CCCCC2)cc1OC (stereo not given)	-10.5%

Following part:
No.	structure	HPGD inh
16	COc1ccc(/C=C/C(=O)NC(=S)Nc2ccc(C(=O)O)cc2)cc1	?
17	O=S(=O)(O)c1ccc(N=Nc2ccccc2)cc1	-11.1%
18	COc1ccc(OC)c(/C=C/C(=O)N(C)CC(=O)Nc2ccc(C)cc2)c1	?
19	COc1ccc(C2=NN(C(=O)c3ccc(Cl)c([N+](=O)[O-])c3)C(c3ccccc3)C2)cc1 (stereo not given)	-13.1%
20	CC1CCN(CC(O)COCCOc2ccc(Br)cc2)CC1 (stereo not given)	-3.9%
21	CN(c1nnc(N)s1)C1CCCCC1	-14.9%
22	CO/N=C/c1ccc(N2CCN(C(=O)c3cccc(C(F)(F)F)c3)CC2)c([N+](=O)[O-])c1	-13.4%
23	O=C(Nc1nccs1)c1cccc(S(=O)(=O)N2CCCCC2)c1	-6.6%
24	COc1ccc(-n2ncc3c(NC(C)C)ncnc32)cc1	?
25	O=C(CSc1ccc2nnc(-c3ccccc3)n2n1)NCc1ccc2c(c1)OCO2	-4.3%
26	CCOc1ccc(S(=O)(=O)Nc2ccccc2C(=O)Nc2ccccc2N2CCOCC2)cc1	-13.7%
27	CCSCCOC(=O)C1=C(C)N(C)C(=O)NC1c1cc(OC)ccc1OC (stereo not given)	-3.4%
28	COc1ccc2c(c1)C(=O)N(CCc1ccc(S(=O)(=O)NC(=O)NC3CCCCC3)cc1)C(=O)C2(C)C	?
29	NC(=O)N1c2ccccc2C=Cc2ccccc21	-3.5%&-6.4%&-6.0%&-5.5%&-5.3%
30	CCOC(=O)c1ccc2c(c1)n(CC)c(/C=C/N(C)c1ccccc1)[n+]2CC	-8.7%

An excerpt of these results, with each value named:
18) COc1ccc(OC)c(/C=C/C(=O)N(C)CC(=O)Nc2ccc(C)cc2)c1
  HPGD inh: ?

19) COc1ccc(C2=NN(C(=O)c3ccc(Cl)c([N+](=O)[O-])c3)C(c3ccccc3)C2)cc1 (stereo not given)
  HPGD inh: -13.1%

(list continues)
No.	structure	HPGD inh
31	CCN(CC)CCN1C(=O)C(=O)/C(=C(/O)c2ccncc2)C1c1ccccc1F (stereo not given)	-14.6%
32	O=C(NCCN1CCCCCC1)c1ccc(N2CCCC2=O)cc1	-11.3%
33	CCc1ccc(NC(=O)c2noc3c2CCCCC3)cc1	-14.7%
34	Cc1ccc(C(=O)C(C)OC(=O)c2n[nH]c(=O)c3ccccc23)cc1 (stereo not given)	14.1µM*
35	O=C(c1ccccc1)c1c2c(cc3sc4ccccc4[n+]13)-c1cccc3cccc-2c13	-8.1%
36	CCOc1cc(CNCCSc2nnnn2C)cc(Br)c1OCc1ccccc1	-27.3%
37	O=C(CN1CCN(c2ncccn2)CC1)N1CCCc2c1c(=O)oc1ccc(O)cc21	-11.5%
38	COc1cccc(Cn2c(=O)c(C)nc3cnc(Oc4cccc(Cl)c4)nc32)c1	-16.8%
39	Cc1cccc(/C(N)=N/OC(=O)C23CC4CC(CC(C4)C2)C3)c1	-20.3%
40	O=C(CSc1nc2ccccc2c(=O)n1NC(=O)c1ccccc1)c1ccc(Cl)cc1	-12.4%
41	CCOC(=O)c1c(-c2ccc(OC)cc2)csc1NC(=O)CSc1ccccc1	-14.3%
42	CCOC(=O)c1cnc(SCC(=O)Nc2ccccc2C(=O)OC)nc1N	-23.8%
43	CCCCN(CCCC)CCn1cnc2c([nH]c3ccc(OC)cc32)c1=O	-20.0%
44	O=C(Nc1cccc(Cl)c1N1CCCCC1)c1ccc(N2CCOCC2)c([N+](=O)[O-])c1	-9.9%
45	Cc1cc(C)c(C(N)=O)c(SCC(=O)c2ccc(Cl)cc2)n1	-1.3%

(more compounds)
No.	structure	HPGD inh
46	O=C(CCCC(=O)NCCc1ccccc1)NCCc1ccccc1	-8.5%
47	CC(=O)OC(C(=O)Nc1ccccc1)C(C)S(=O)(=O)c1ccccc1 (stereo not given)	-9.4%
48	C[C@@]1(CCOCc2ccccc2)NC(=O)NC1=O	-3.3%
49	Cc1nc(NC(=S)NC(=O)COc2ccccc2Cl)ccc1Br	-24.1%
50	O=C(Nc1ccc(NC(=O)C2CC2)cn1)c1ccccc1Cl	-12.3%
51	Cc1sc(N/N=C/c2cccnc2)nc1-c1ccc(Cl)cc1	-25.6%
52	COC(=O)c1sccc1NC(=O)CSc1nnnn1-c1ccccc1C	?
53	C[C@@H]1C(=O)O[C@@H]2C[C@]34[C@H]5C[C@@H](C(C)(C)C)[C@@]36[C@@H](OC(=O)[C@@H]6O)O[C@@]4(C(=O)O5)[C@@]12O	1.3%
54	CCCS(=O)(=O)c1nc(S(=O)(=O)c2ccc(C)cc2)c(NCCCN2CCOCC2)s1	-15.1%
55	COc1cccc(NC(=O)Cn2nnc(-c3ccccc3N)n2)c1	-5.1%
56	CN1CCN(S(=O)(=O)c2ccc(NC(=O)C(C)(C)C)cc2)CC1	-18.5%
57	O=C(N/N=C/c1cccs1)c1cc(-c2ccncc2)nc2ccccc12	-15.2%
58	O=C(CN1CC[n+]2c(-c3cccs3)csc21)c1ccc(Br)cc1	-15.7%
59	CCOc1ccccc1-n1c(SCC(=O)NC(C)CC)nnc1-c1ccoc1C (stereo not given)	-9.2%
60	CC1=C(C(=O)O)N2C(=O)C(NC(=O)c3ccn(C)n3)C2SC1 (stereo not given)	-4.4%

The list goes on:
No.	structure	HPGD inh
61	COc1ccc(-c2nnc(SCC(=O)Nc3cccc(Cl)c3)o2)cc1	-10.9%
62	N#CC1C(=O)NC(N2CCN(c3ccccc3)CC2)=NC12CCCCC2 (stereo not given)	-2.5%
63	Cc1csc(SCCn2c(N3CCCC3)nc3c2c(=O)[nH]c(=O)n3C)n1	-1.7%
64	CC(=O)OCC1=C(C(=O)O)N2C(=O)[C@@H](NC(=O)CSc3ccncc3)[C@H]2SC1	-16.6%
65	CC(C)(C)n1nc(C2CC2)cc1NC(=O)Nc1ccc(Cl)cc1	-2.0%
66	Clc1nc(Nc2ccccc2)nc(Nc2ccccc2)n1	-6.9%
67	Cc1cc(S(=O)(=O)NCC(C)C)ccc1OCC(=O)N1CCOCC1	-9.6%
68	O=C(Cn1cnc2ccccc21)N/N=C/c1cccs1	-13.2%
69	C[C@@H]1O[C@H](O[C@@H]2[C@@H](Oc3cc(O)c4c(c3)O[C@H](c3ccc(O)cc3)CC4=O)O[C@@H](CO)[C@@H](O)[C@H]2O)[C@@H](O)[C@H](O)[C@@H]1O	-1.3%
70	CCc1cc2c(=O)c(-c3ccc4c(c3)OCCO4)coc2cc1OC(=O)c1ccco1	-13.5%
71	O=C(NCc1ccccc1)c1ccc(OC2CSC2)cc1	-18.2%
72	COc1ccc(-c2nc(CS(=O)CC(=O)N3CCCC3)c(C)o2)cc1 (stereo not given)	-24.3%
73	CCOC(=O)CSC1=Nc2ccccc2C2=NC(CC(=O)NCc3ccccc3)C(=O)N12 (stereo not given)	?
74	O=C(NNC(=S)NC1CCCCC1)c1ccc2c(c1)OCO2	-12.6%
75	COc1ccc(NC(=O)Nc2ccc(OC)c(OC)c2)c([N+](=O)[O-])c1	-11.2%

Continuation:
No.	structure	HPGD inh
76	Cc1cc(C)n(CC(=O)n2c3ccccc3c3ccccc32)n1	-7.7%
77	CS(=O)(=O)Nc1cccc(C2=NN(S(=O)(=O)c3ccccc3)C(c3cccs3)C2)c1 (stereo not given)	-7.1%
78	COC(=O)c1cc(=O)n(C2CC2)c(=NC2CC2)s1	-0.9%
79	CC1CCCCN1c1nc2nonc2nc1N1CCCCC1C (stereo not given)	-14.4%
80	CCCCNC(=O)c1ccc(CS(=O)(=O)c2ccc(OC)cc2)o1	-14.9%
81	CC1CCCCN1S(=O)(=O)c1ccccc1[N+](=O)[O-] (stereo not given)	-4.2%
82	COC(=O)[C@@]1(Cc2ccc(OC)cc2)[C@H]2c3cc(C(=O)N4CCCC4)n(Cc4ccc(OC(F)(F)F)cc4)c3C[C@H]2CN1C(=O)c1ccccc1	-19.6%
83	O=C(CCc1nc2ccccc2[nH]1)Nc1ccccc1	3.0%
84	O=C(O)CCC(=O)Nc1ccc(OCC(=O)O)cc1	-10.8%
85	C=CCOc1ccc(C(=O)CC)cc1OC	-3.8%
86	Cc1ccc(C(=O)CC2(O)C(=O)Nc3ccccc32)s1 (stereo not given)	-2.0%
87	O=C1c2ccccc2NC2CCCCC12 (stereo not given)	-18.1%
88	O=C(Cn1c(-c2ccccc2)noc1=O)Nc1ccc(N2CCCCCC2)cc1	-20.4%
89	Cc1cc(NC(=O)c2cccc(S(=O)(=O)N3CCOCC3)c2)c2ccccc2n1	-5.0%
90	COc1ccc2cc(CCNC(=O)c3ccc(Br)o3)c(=O)[nH]c2c1	?

Arranged by formula weight (ascending): part of the list above.
No.	structure	HPGD inh
87	O=C1c2ccccc2NC2CCCCC12 (stereo not given)	-18.1%
83	O=C(CCc1nc2ccccc2[nH]1)Nc1ccccc1	3.0%
86	Cc1ccc(C(=O)CC2(O)C(=O)Nc3ccccc32)s1 (stereo not given)	-2.0%

(next part)
No.	structure	HPGD inh
91	COc1ccc(-c2cc3ccccc3oc2=O)cc1NC(=O)c1cccnc1	?
92	COc1cc(C2NC(=O)NC(C)=C2C(=O)OC(C)(C)C)ccc1OCC(=O)O (stereo not given)	-2.9%
93	CCn1nnc(NC(=O)c2cc3ccccc3o2)n1	-0.2%
94	COC(=O)c1ccc(OC(=O)c2ccco2)cc1	-11.8%
95	COc1ccc(N(CC(=O)NC2CCCC2)C(=O)c2csnn2)cc1	0.1%
96	Cc1ccc(NC(=S)NCc2ccc3[nH]c4c(c3c2)CCCC4)cc1	-36.4%
97	COc1ccccc1OCCn1c(C(C)O)nc2ccccc21 (stereo not given)	-2.3%
98	Clc1ccc(CSc2nnc(-c3ccncc3)o2)cc1	-7.5%
99	O=S1(=O)C=C(SCc2ccccc2)Nc2ccccc21	-10.3%
100	Cc1cc(NS(=O)(=O)c2ccc(Nc3nc(-c4ccc(O)cc4)cs3)cc2)no1	20µM*
101	Oc1ccccc1-c1nc2cnccn2c1Nc1ccc2c(c1)OCCO2	-24.1%
102	Cc1cc2n(n1)C(c1cccs1)Nc1ccccc1-2 (stereo not given)	-24.8%
103	CC(=O)N1CCc2cc(S(=O)(=O)N3CCOCC3)ccc21	-3.6%
104	CC(C)Oc1ccc(C(=O)N(CN2CCCC2=O)c2ccc(F)cc2)cc1	-4.3%
105	O=C(/C=N/O)Nc1ccccc1C(=O)O	-2.3%

New compounds follow.
No.	structure	HPGD inh
106	COc1ccc(C(=O)N2CCC3(CCCN(C(=O)Nc4cccc(C#N)c4)C3)CC2)cc1	-4.6%
107	Cc1ccc(-n2c(Cc3cccn3C)nnc2SCC(N)=O)cc1	-10.4%
108	COc1ccc(CC(=O)Nc2ccc(N3CCN(c4ccc(OC)cc4)CC3)c(C#N)c2)cc1	?
109	Cc1nnc(SCc2cc(=O)n3[nH]cnc3n2)s1	-10.9%
110	COc1ccc(CCn2c(C)cc(C(=O)CSc3nnnn3C)c2C)cc1	-11.8%
111	CCOc1ccc(C(O)C(CN2CCOCC2)c2ccccc2)cc1 (stereo not given)	-11.5%
112	CCS(=O)(=O)Nc1ccc(C(=O)CC2(O)C(=O)Nc3ccc(Br)cc32)cc1 (stereo not given)	?
113	CCOC(=O)c1cccnc1SCC(=O)N(C)c1ccccc1	-5.8%
114	COc1cc2[nH]cc(C(=O)NCCc3ccccc3)c(=O)c2cc1OC	?
115	COc1ccccc1NC(=S)NC(=O)C(C)C	-13.6%
116	COC(=O)c1[nH]c2cc(C)ccc2c1NC(=O)CN1CCc2cc(OC)c(OC)cc2C1	-25.4%
117	Cc1ccc(C2C(C#N)=C(N)SC(N)=C2C#N)cc1	-16.4%
118	COc1ccc([N+](=O)[O-])cc1NC(=O)c1ccc(N(Cc2ccccc2C)S(C)(=O)=O)cc1	-9.7%
119	O=C(c1cnsn1)N1CCN(c2ccccc2)CC1	-4.2%
120	Cc1ccc(-n2c(C)nc3c(cnn3-c3ccc(C)c(C)c3)c2=O)cc1C	-21.2%
121	C[C@@H]1C[C@H]2[C@@H]3C[C@H](F)C4=CC(=O)C=C[C@@]4(C)[C@]3(F)[C@H](O)C[C@]2(C)[C@@]1(O)C(=O)CO	-6.8%
